Source: PubChem BioAssay
HCMV NEC inh = inhibitors of HCMV UL50-UL53 nuclear egress complex interaction | HTRF UL50-UL53 interaction, normalized percent inhibition | inhibition, % (concentration not given with the values) | hit rate 0.15% among 190,000 | AID 1918969;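 active = both replicates at 50% or more, plus weaker picks with an unusually low signal ratio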;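 also: stock transfer was 100 nL into about 20 µL; 0% = negative control wells and 100% = wells with untagged competitor protein; inactives centre near -12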
Starred values were filed as active, the others as inactive; & = joins results of further samples. This is a subset. The share of hits here may be higher or lower than overall.

SMILES	HCMV NEC inh
O=C1C=CC(Br)=C/C1=C\N(O)c1ccccc1	-26
CC1CN(S(=O)(=O)c2ccc(Cl)cc2)CCN1S(=O)(=O)c1ccc(Cl)cc1 (configuration not stated)	8
Cc1cccc(C(=O)Nc2nc(-c3ccc(F)cc3)cs2)c1	-17
CCc1cc2c(=O)c(Oc3ccccc3)c(C(F)(F)F)oc2cc1O	-4
Cc1cc(C)nc(NS(=O)(=O)c2ccc(NC(=S)NC(=O)COc3ccc(Br)cc3Cl)cc2)n1	3
Clc1nc2sccn2c1C=NCc1cccnc1	-16
COc1ccc(OCCC(=O)O)cc1	3&-9
N#CC1C2=C(CCCC2)SC1NC(=O)c1cc2ccccc2oc1=O (configuration not stated)	9&-20
Oc1cc(O)cc(C=Cc2ccc(O)c(O)c2)c1	-53
Cn1c(SCC(=O)NCc2cccnc2)nnc1-c1sc2ccccc2c1Cl	-21
Cc1cc2oc(=O)cc(-c3ccccc3)c2c(O)c1CN1CCOCC1	-23
O=C(Nc1nc(-c2cccs2)cs1)c1ccc(N2C(=O)CCC2=O)cc1	-14
CCN(CC)C(=O)Oc1ccc2ccccc2c1Br	-17
COCC(=O)NCc1nc2ccccc2n1Cc1ccccc1C	-15
Cc1ccc(C(=O)N2CCC(Cc3ccccc3)CC2)cc1	-4
C[C@@H](O)[C@@H]1NC(=O)[C@@H]2C[C@H](NCc3cc4ccccc4s3)CN2C1=O	-10
Cc1ccc(OCC(O)CN)c(C)c1 (configuration not stated)	8&-8
CCc1c(C(=O)N2CCCN(C(C)=O)CC2)csc1C	-8
CCCCC[C@H](O)/C=C/[C@@H]1[C@@H](C/C=C\CCCC(=O)OC)[C@@H](O)C[C@H]1O	-12&-12
Nc1ncc(Cc2ccc(Cl)cc2Cl)s1	-12
CC(C)C(=O)NC(C)C(c1cccs1)N1CCN(C)CC1 (configuration not stated)	1
CS(=O)(=O)c1ccc(/C=C/c2ccc(Cl)cc2)cc1	8
Cc1cc(C(=O)N2CCc3[nH]nc(COc4ccccc4)c3C2)c(C)o1	-19&-19
CCCCc1nc2cc(C=CC(=O)NO)ccc2n1CCN(CC)CC	-29
Cc1cc(NCc2ccco2)ncn1	0
O=C(NCCN1CCN(c2ccccc2F)CC1)c1cc(-c2ccccc2)n[nH]1	-6
O=C(Cn1nnc(-c2ccccc2)n1)c1ccccc1	-13
O=C(/C=C1\SC(=O)N(Cc2ccc(F)cc2)C1=O)Nc1nccs1	-5
CCOc1ccc(S(N)(=O)=O)cc1	-21
CCc1cc(C(=O)Cn2cnc3ccccc32)c(O)cc1O	-20
CCCCC/C=C\C/C=C\C/C=C\C/C=C\CCCC(=O)NC[C@]1(C)CCC[C@]2(C)c3ccc(C(C)C)cc3CC[C@@H]12	-19&-19
CCCCC1CCC(c2nc(-c3ccncc3)no2)CC1 (configuration not stated)	-3&-32&-32

Reprinted from the part before: 4 entries; new compounds follow.
SMILES	HCMV NEC inh
CCOc1ccc(S(N)(=O)=O)cc1	-21
CCc1cc(C(=O)Cn2cnc3ccccc32)c(O)cc1O	-20
CCCCC/C=C\C/C=C\C/C=C\C/C=C\CCCC(=O)NC[C@]1(C)CCC[C@]2(C)c3ccc(C(C)C)cc3CC[C@@H]12	-19&-19
CCCCC1CCC(c2nc(-c3ccncc3)no2)CC1 (configuration not stated)	-3&-32&-32
COC(=O)c1sc(-c2ccccc2)cc1NC(=O)C1CC1	-14
C#CC1(O)CC[C@H]2[C@@H]3CCC4=CCCC[C@@H]4[C@H]3CC[C@@]21C (some centres not stated)	-5
OC(COc1ccc(C2CCCCC2)cc1)CN1CCCCC1 (configuration not stated)	4
CC(C)c1ncc(C(=O)N2CCC(n3cc(-c4ccccn4)nn3)CC2)cn1	-19
COc1ccc(C(=O)NCCc2cc3c(C)ccc(C)c3[nH]c2=O)cc1OC	-9
COC(=O)c1c(NC(=O)c2cccnc2)c2cc(NCc3ccc4c(c3)CCO4)cnc2n1CC(C)C	-13
CC1CCc2sc(NC(=O)c3cccs3)c(C(N)=O)c2C1 (configuration not stated)	11
CC(C)OC(=O)C(C)N[P@](=O)(OCC1OC(n2ccc(=O)[nH]c2=O)[C@](C)(F)C1O)Oc1ccccc1 (some centres not stated)	0
COc1cc(S(=O)(=O)NC2CCCCCC2)c(C)cc1C	7
NC(C(=O)NC1C(=O)N2C(C(=O)O)=C(CSc3cn[nH]n3)CSC12)c1ccc(O)cc1 (configuration not stated) (tested in a mixture with another compound)	-48
CCCCCCCCCCCCCC(=O)N[C@H](CO)[C@H](O)c1ccc([N+](=O)[O-])cc1	-14&-14
Cc1cc(C)c2c(-n3cccc3)n[nH]c2n1	-6
Cc1cc(C)c(S(=O)(=O)n2ccnc2)c(C)c1	-16
CCN(CC)S(=O)(=O)c1ccc2c3c(cccc13)C(=O)S2	-43&-44
Cc1cc(C)nc(SCCS(=O)(=O)c2nc3ccccc3s2)n1	-2
CCCCCC(=O)/C=C/C=C\CCCCCCCC(=O)O	-1

Looked up by structure from the entries so far:
SMILES	HCMV NEC inh
COc1cc(S(=O)(=O)NC2CCCCCC2)c(C)cc1C	7
Cc1cc(C)nc(SCCS(=O)(=O)c2nc3ccccc3s2)n1	-2

Next results.
SMILES	HCMV NEC inh
Cc1ccc2nc(NC(=O)c3ccc(-c4ccccc4)cc3)sc2c1	-16
CC(C)Cn1c(CCNC(=O)c2ccccc2)nc2ccccc21	-10
O=C1CCCC2=C1C(c1cccnc1)C1=C(CCCC1=O)O2	0
COc1ccc(C(=O)N=c2sc3cc(C)ccc3n2C)c(OC)c1	-7
Cc1ccc2sc(NC(=O)C(C)C)nc2c1C	1
CCc1oc2cc(O)ccc2c(=O)c1-c1ccc2c(c1)OCCO2	-17
O=c1cc(-c2ccccc2)oc2cc(Cl)ccc12	-8
O=C(CCn1c(=O)sc2ccccc21)NC1CCCCC1	6
O=C(NCSc1ccncn1)c1ccccc1	6
COC(=O)CNC(c1ccccc1)c1cc(Br)ccc1N (configuration not stated)	-20
CS(=O)(=O)c1ccc(C(O)C(CO)NC(=O)C(Cl)Cl)cc1 (configuration not stated)	8
CCCCCCCCc1ccc(CCC(N)(CO)CO)cc1	27&-8&-8
COc1ccc2cc(-c3nc4ccccc4n3C)c(=O)oc2c1	-29
C[C@H](N[C@@H](CCc1ccccc1)C(=O)O)C(=O)N1Cc2ccccc2C[C@H]1C(=O)O	-29
Cc1nonc1CN(C)c1ncnc2nc[nH]c12	-9&-9
Cc1cc(C)c(NC(=O)Cn2cnc3ccccc32)c(C)c1	-12
Cc1ccc2nc(NCCO)nc(-c3ccccc3)c2c1	-18
CC(C)[C@H](O)CC[C@@H](C)[C@H]1CC[C@H]2[C@@H]3CC=C4C[C@@H](O)CC[C@]4(C)[C@H]3CC[C@]12C	-17
COc1ccc(C(=O)CSc2nc3c(cc2C#N)CCC3)cc1	-25
CC1=CC(=O)N(CCC#N)c2ccccc2N1	-11
CCN1CCN(S(=O)(=O)c2ccc3c4c(cccc24)C(=O)N3CC)CC1	-16
O=C(CSc1nc2sc3c(c2c(=O)[nH]1)CCCC3)Nc1nccs1	6
CO/N=C(\C(=O)N[C@@H]1C(=O)N2C(C(=O)O)=C(COC(N)=O)CS[C@H]12)c1ccco1	2
Cc1cc(C)nc(/N=C/c2c(O)c3ccccc3oc2=O)n1	-16
CCCCCCCOC(=O)Cc1c(C)n(C(=O)c2ccc(Cl)cc2)c2ccc(OC)cc12	-13&-13
CN(C)CC(c1ccc(O)cc1)C1(O)CCCCC1 (configuration not stated)	-19&-14&-68
CCOc1ccccc1C(=O)NCCc1cc2ccc(C)c(C)c2[nH]c1=O	-24
NS(=O)(=O)c1ccc(Nc2nc3sc4c(c3c(=O)s2)CCCC4)cc1	6
Nc1c(-c2ccc(Cl)cc2)nnn1-c1ccccc1	1
O=C(O)Cn1c(=S)sc2ccccc21	-12
O=C(Nc1nc(-c2ccccc2)cs1)c1ccco1	-5
CCOC(=O)C(C)Sc1nc2c(cnn2-c2ccc(Cl)cc2)c(=O)[nH]1 (configuration not stated)	9
N#Cc1c(-c2ccccc2)nc2sccn12	8
O=C(CN1C(=O)/C(=C/c2ccccc2)SC1=S)OC1CCCCC1	-34
N#Cc1ccc(N2CCCNCC2)nc1	-10
CCOC(=O)c1c(C)oc2c1c(CN1CCN(CC)CC1)c(O)c1ccccc12	-5
CCOC(=O)c1csc(CCNC2CCc3c(c(C(=O)N4CCc5ccccc5C4)nn3C)C2)n1 (configuration not stated)	-5
CCC(C)Nc1cc(C(=O)NC2CC3CCC(C2)N3c2ccc(C(=O)C3CC3)cn2)c(C)cc1C(N)=O (configuration not stated)	-10
CCCCC1(COC(=O)CCC(=O)O)C(=O)N(c2ccccc2)N(c2ccccc2)C1=O	-14
COc1cc(C)c(C=CC(C)=CC=CC(C)=CC(=O)O)c(C)c1C	-6
Cc1cc2cc(CNC(=O)CCC(=O)O)ccc2n1C	-8
COc1cc(O)c2c(c1)C(=O)c1cc(C)cc(O)c1C2=O	-14
Cc1c(C(=O)c2ccccc2)c(N)c(-c2ccccc2)n1Cc1ccc(Cl)cc1	-13&-13
O=C1c2c(O)cc(O)cc2OC(c2cc(O)c(O)c(O)c2)C1O (configuration not stated)	-7
CC(=O)NC(C)c1nc2ccccc2n1Cc1ccccc1C (configuration not stated)	-11
Cn1c(SCC(=O)Nc2cccc(Cl)c2)nnc1-c1ccc(OCC(F)(F)F)nc1	-12
CC(C)Cn1nc(C(=O)NCc2cccnc2)c2c1CCN(C(=O)c1scc3c1OCCO3)C2	2
CCCn1c(CCCNC(=O)c2ccccc2)nc2ccccc21	-3
NC(=O)Cc1cccc(C(=O)c2ccccc2)c1N	-4
COc1ccc(CNCC2COCCO2)cc1OC (configuration not stated)	-5
O=C(O)c1ccc(-n2c(-c3ccccc3)cc3c2CCCC3=O)cc1	0
CC1OC(OC2C(Oc3cc(O)c4c(c3)OC(c3ccc(O)cc3)CC4=O)OC(CO)C(O)C2O)C(O)C(O)C1O (configuration not stated)	-3
c1cn(-c2ccc(-c3ccno3)cc2)cn1	-9
O=C(NS(=O)(=O)c1ccccc1)c1ccccc1	-26
C1CCN2C[C@@H]3C[C@@H](CN4CCCC[C@@H]34)[C@H]2C1	-21
COc1ccc(-c2cc3ccccc3n2CC(O)CNCc2ccccc2)cc1 (configuration not stated)	3

Additional results.
SMILES	HCMV NEC inh
CSc1nc(NC(=O)C(F)(F)F)cc(=O)[nH]1	15
O=C1C(Br)=CC(=CN(O)c2ccccc2)C=C1Br	-2
Cn1c(SCC(N)=O)nnc1-c1c[nH]c2ccccc12	-16
CCn1c(SCC(=O)Nc2ccccc2)nnc1-c1c[nH]c2ccccc12	-15
Cc1ccccc1-c1nnc(NC(=O)C(C)SC2=NCCS2)s1 (configuration not stated)	-11
O=C(Nc1nc(-c2cc3ccccc3oc2=O)cs1)C1CCCCC1	4
COc1ccc(-c2c(C)oc3cc(OC(C)=O)ccc3c2=O)cc1	-22
CN(C)CCCN1C(=O)C(=O)/C(=C(/O)c2ccccc2)C1c1ccccc1 (configuration not stated)	-16

For convenience, two of the compounds above.
SMILES	HCMV NEC inh
COc1ccc(-c2c(C)oc3cc(OC(C)=O)ccc3c2=O)cc1	-22
CN(C)CCCN1C(=O)C(=O)/C(=C(/O)c2ccccc2)C1c1ccccc1 (configuration not stated)	-16

Additional records
SMILES	HCMV NEC inh
CCCCC[C@H](O)/C=C/[C@H]1C(=O)C=C[C@@H]1C/C=C\CCCC(=O)O	-18&-18&-5
N[C@@H](Cn1ccc(=O)n(Cc2ccccc2C(=O)O)c1=O)C(=O)O	-4
O=C(CCN1C(=O)/C(=C/c2ccc3c(c2)OCO3)SC1=S)Nc1ccccc1	-8
COc1cc(-c2cccc(C)c2C)nc(N)n1	-14
COc1ccc(C(=O)CSC2=C(C#N)C(c3cccs3)CC(=O)N2)cc1 (configuration not stated)	-60
CCN1CCN(C(c2ccccc2)c2sc3ncnn3c2O)CC1 (configuration not stated)	-7
COc1ccc2nc(/C(C)=N/O)sc2c1	-7
COC(=O)c1c(NC(=O)CC2Sc3ccccc3NC2=O)sc2c1CCCC2 (configuration not stated)	2
CN(C)C1CCN(C(=O)c2cc(-c3ccccc3)cc(S(=O)(=O)N3CCSCC3)c2)C1 (configuration not stated)	-1
CCCCC(=O)Nc1nnc(-c2ccc(OC)cc2OC)s1	-9
CC(NS(=O)(=O)c1ccccc1)C(c1cccs1)N1CCN(C)CC1 (configuration not stated)	-11
CCC(C)(CN(C)C)OC(=O)c1ccccc1 (configuration not stated)	-13
O=c1cc(-c2ccccc2)oc2cc(O)c(O)c(O)c12	-34&-13&-6&-6
CC(=O)c1ncc([C@@H](O)[C@H](O)[C@H](O)CO)[nH]1	-13&-13
OCC1OC(n2cnc3c(NC4CCCC4O)ncnc32)C(O)C1O (configuration not stated)	-56
CC(C)C1CCC(C(=O)NC(Cc2ccccc2)C(=O)O)CC1 (configuration not stated)	2&-64
O=C(C=Cc1ccc(O)cc1)c1ccc(O)cc1O	1
CCOC(=O)c1c(N2C(=O)C=CC2=O)sc2c1CCC(C)C2 (configuration not stated)	4
COc1ccc(/C=C/C(=O)CC(=O)/C=C/c2cccc(O)c2OC)cc1O	4
O=C(NCCn1ccnc1)c1cc(NCC2CC2)cc(S(=O)(=O)N2CCCC2)c1	-9
O=S1(=O)CC2N=C(Nc3ccc(Cl)c(Cl)c3)SC2C1 (configuration not stated)	-10
Cc1cccc(Nc2ncnc3c2cnn3-c2ccccc2)c1	0
